nsP2pro inh: Primary qHTS for inhibitors of NSP2Pro chikungunya virus (CHIKV) | 31,000 compounds, 1.1% hits | Potency, µM (top dose mostly 24.9 µM), for inactives: at the highest dose activity change, negative = inhibition, hits mostly inhibitors | FRET peptide cleavage, nsP2pro, fluorescence 1 h | Polyprotein P1234 (Chikungunya virus (strain S27-African prototype)), Q8JUX6; active means well fitted inhibition curve with a large enough effect; inconclusive means small, poorly fitted or top-dose-only effect; inactive means no such curve, though single readings can be large or run the other way; also: nearly all actives have a fitted effect of over 60% in size; a reference inhibitor and vehicle were the controls
Target sequence (Q8JUX6 whole entry, looked up): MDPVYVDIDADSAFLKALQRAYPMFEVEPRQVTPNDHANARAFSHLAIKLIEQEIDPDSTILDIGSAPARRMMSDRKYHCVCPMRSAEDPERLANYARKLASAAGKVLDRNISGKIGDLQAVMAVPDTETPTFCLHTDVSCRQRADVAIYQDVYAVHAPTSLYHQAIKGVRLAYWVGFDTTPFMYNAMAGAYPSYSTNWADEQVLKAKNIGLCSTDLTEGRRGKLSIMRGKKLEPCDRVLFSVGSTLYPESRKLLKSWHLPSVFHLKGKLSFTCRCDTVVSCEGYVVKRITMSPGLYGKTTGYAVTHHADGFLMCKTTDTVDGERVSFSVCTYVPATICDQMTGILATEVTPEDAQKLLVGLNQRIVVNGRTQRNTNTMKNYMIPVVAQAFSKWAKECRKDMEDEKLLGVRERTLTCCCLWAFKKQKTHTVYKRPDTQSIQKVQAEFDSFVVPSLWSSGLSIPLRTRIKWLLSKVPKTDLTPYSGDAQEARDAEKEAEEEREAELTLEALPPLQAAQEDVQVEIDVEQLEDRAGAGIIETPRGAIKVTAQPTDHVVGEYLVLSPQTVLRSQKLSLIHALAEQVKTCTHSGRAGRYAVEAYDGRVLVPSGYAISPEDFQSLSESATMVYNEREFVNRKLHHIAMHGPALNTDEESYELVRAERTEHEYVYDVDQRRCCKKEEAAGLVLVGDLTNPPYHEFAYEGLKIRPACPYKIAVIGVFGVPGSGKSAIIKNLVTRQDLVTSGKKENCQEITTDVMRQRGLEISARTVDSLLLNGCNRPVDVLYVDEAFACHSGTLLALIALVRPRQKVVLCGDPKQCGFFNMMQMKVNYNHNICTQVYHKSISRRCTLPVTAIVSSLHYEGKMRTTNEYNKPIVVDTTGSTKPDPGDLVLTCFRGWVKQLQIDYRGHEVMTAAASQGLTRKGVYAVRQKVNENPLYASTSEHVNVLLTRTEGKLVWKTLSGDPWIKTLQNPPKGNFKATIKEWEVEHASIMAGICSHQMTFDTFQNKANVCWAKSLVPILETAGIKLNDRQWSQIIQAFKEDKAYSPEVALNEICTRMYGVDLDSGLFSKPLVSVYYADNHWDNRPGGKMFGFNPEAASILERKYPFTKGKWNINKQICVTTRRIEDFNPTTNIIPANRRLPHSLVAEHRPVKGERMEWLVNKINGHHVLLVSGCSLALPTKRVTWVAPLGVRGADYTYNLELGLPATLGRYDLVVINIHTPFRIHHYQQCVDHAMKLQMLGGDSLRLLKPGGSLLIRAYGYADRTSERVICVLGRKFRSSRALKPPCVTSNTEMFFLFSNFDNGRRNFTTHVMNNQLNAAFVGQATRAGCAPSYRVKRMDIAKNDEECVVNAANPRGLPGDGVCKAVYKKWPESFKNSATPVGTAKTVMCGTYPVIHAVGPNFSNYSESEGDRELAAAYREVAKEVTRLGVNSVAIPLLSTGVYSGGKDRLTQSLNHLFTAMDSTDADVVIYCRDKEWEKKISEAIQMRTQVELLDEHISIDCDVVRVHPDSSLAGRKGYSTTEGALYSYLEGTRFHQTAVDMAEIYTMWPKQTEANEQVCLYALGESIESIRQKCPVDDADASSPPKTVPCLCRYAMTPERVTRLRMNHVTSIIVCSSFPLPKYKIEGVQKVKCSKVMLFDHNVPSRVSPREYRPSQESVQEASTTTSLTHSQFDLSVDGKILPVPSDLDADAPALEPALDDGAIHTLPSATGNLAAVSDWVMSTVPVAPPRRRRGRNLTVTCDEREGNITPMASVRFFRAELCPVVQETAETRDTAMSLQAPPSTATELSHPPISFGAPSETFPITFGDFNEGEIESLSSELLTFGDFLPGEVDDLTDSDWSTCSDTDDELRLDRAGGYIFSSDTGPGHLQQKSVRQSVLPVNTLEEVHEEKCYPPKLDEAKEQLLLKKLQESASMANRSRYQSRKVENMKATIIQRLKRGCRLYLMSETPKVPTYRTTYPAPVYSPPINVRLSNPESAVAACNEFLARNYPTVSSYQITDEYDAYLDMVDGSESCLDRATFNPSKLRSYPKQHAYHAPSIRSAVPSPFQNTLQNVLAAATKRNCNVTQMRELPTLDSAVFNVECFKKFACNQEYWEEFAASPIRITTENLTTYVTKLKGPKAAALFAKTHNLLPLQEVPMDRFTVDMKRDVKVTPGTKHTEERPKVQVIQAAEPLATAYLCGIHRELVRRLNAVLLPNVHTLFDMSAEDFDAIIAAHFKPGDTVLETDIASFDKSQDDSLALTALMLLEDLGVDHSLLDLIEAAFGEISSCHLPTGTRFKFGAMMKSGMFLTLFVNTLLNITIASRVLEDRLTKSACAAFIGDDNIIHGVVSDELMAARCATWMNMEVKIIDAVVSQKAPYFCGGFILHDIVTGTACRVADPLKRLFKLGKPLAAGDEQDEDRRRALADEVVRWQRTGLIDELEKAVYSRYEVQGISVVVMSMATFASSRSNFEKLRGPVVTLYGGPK
An asterisk follows results filed as active; [ ] = another dose, or the depositor's remark. % is scaled to controls: 0 for no effect and ±100 for the full control effect; potency is read from the fitted curve at half-maximal effect. Some of the compounds tested (hit frequency here may not be typical).

Start of the data: the first 7 records, ahead of the listing:
Results for COc1c2c(c(C)c3c1C(=O)OC3)O[C@@]1(C)CC(O)C(C(C)(C)O)[C@](C)(CCC(=O)O)[C@H]1C2 (some centres undefined) ?
nsP2pro inh: -8%[10 µM]

Results for CC(C)(C)c1ccc(S(=O)(=O)N2CCC(c3ccncc3)CC2)cc1 ?
nsP2pro inh: -14%

What do the screens show for `O=C(c1ccncc1)N1CCC(Cc2noc(-c3ccccc3)n2)C1` (centres undefined)?
nsP2pro inh: 3%

What do the screens show for `O=C(c1ccc(Cl)cc1)N1CCN(c2ccnc3cc(Cl)ccc23)CC1`?
nsP2pro inh: -10%

Results for CCCCCC(O)/C=C/[C@@H]1C(CCCCCCC(=O)O)C(=O)C[C@@H]1O (some centres undefined) ?
nsP2pro inh: -2%

What do the screens show for `Cc1cc(NS(=O)(=O)c2ccc(NS(=O)(=O)Cc3ccc(Cl)c(Cl)c3)cc2)no1`?
nsP2pro inh: inactive

What do the screens show for `Cc1c(C(=O)Nc2ccc(N3CCC(N4CCOCC4)CC3)c(C#N)c2)cnn1-c1ccc(Cl)cc1`?
nsP2pro inh: -28%

The listing (from the top)
Results for COc1c2c(c(C)c3c1C(=O)OC3)O[C@@]1(C)CC(O)C(C(C)(C)O)[C@](C)(CCC(=O)O)[C@H]1C2 (some centres undefined) ?
nsP2pro inh: -8%[10 µM]

Results for CC(C)(C)c1ccc(S(=O)(=O)N2CCC(c3ccncc3)CC2)cc1 ?
nsP2pro inh: -14%

What do the screens show for `O=C(c1ccncc1)N1CCC(Cc2noc(-c3ccccc3)n2)C1` (centres undefined)?
nsP2pro inh: 3%

What do the screens show for `O=C(c1ccc(Cl)cc1)N1CCN(c2ccnc3cc(Cl)ccc23)CC1`?
nsP2pro inh: -10%

Results for CCCCCC(O)/C=C/[C@@H]1C(CCCCCCC(=O)O)C(=O)C[C@@H]1O (some centres undefined) ?
nsP2pro inh: -2%

What do the screens show for `Cc1cc(NS(=O)(=O)c2ccc(NS(=O)(=O)Cc3ccc(Cl)c(Cl)c3)cc2)no1`?
nsP2pro inh: inactive

What do the screens show for `Cc1c(C(=O)Nc2ccc(N3CCC(N4CCOCC4)CC3)c(C#N)c2)cnn1-c1ccc(Cl)cc1`?
nsP2pro inh: -28%

What do the screens show for `Cc1cc(O)c(C(c2ccccc2Cl)N2CCN(c3ccccc3)CC2)c(=O)n1Cc1ccco1` (centres undefined)?
nsP2pro inh: inconclusive

What do the screens show for `CCCOc1ccc(C(=O)N(Cc2ccco2)Cc2ccco2)cc1`?
nsP2pro inh: inconclusive

What do the screens show for `CCCNc1cc(N2CCC(CCC(=O)NCCN3CCCCCC3)CC2)ncn1`?
nsP2pro inh: inactive

What do the screens show for `Cc1ccc(-c2nc(CS(=O)CC(=O)N3CCN(c4cccc(Cl)c4)CC3)c(C)o2)cc1` (centres undefined)?
nsP2pro inh: -16%

Results for CC(C)C[C@H](NC(=O)[C@@H](COC(C)(C)C)NC(=O)[C@H](Cc1ccc(O)cc1)NC(=O)[C@H](CO)NC(=O)[C@H](Cc1c[nH]c2ccccc12)NC(=O)[C@H](Cc1cnc[nH]1)NC(=O)[C@@H]1CCC(=O)N1)C(=O)N[C@@H](CCCN=C(N)N)C(=O)N1CCC[C@H]1C(=O)NNC(N)=O ?
nsP2pro inh: 53%[activator][10 µM]

How did Cc1ccc2nc(Cl)c3cc(C(=O)NC4CCCCCC4)sc3c2c1 do in these assays?
nsP2pro inh: -20%

How did CCOC(=O)c1c(C)oc2ncnc(N3CCN(c4ccccc4)CC3)c12 do in these assays?
nsP2pro inh: -7%

What do the screens show for `COc1ccc(N2CCN(C(=O)Cn3nc(Cc4cccnc4)c4ccccc4c3=O)CC2)cc1`?
nsP2pro inh: -14%

How did Cc1ccc(NC(=O)N2C[C@@H](F)C[C@H]2C(=O)N2CCCCC2)cc1F do in these assays?
nsP2pro inh: -3%

How did CC1CCCCN1C(=O)CSc1n[nH]c(-c2ccccc2Cl)n1 (centres undefined) do in these assays?
nsP2pro inh: -18%

How did C=CC(C)(C)c1[nH]c2cc3c(cc2c1CC1NC(=O)C2=CCCN2C1=O)C=CC(C)(C)O3 (centres undefined) do in these assays?
nsP2pro inh: -3%[10 µM]

What do the screens show for `COc1ccc(CN2C(=O)C(NC(=O)c3ccccc3C)(C(F)(F)F)N=C2c2ccccc2)cc1` (centres undefined)?
nsP2pro inh: 1%

How did C[C@H]1CCCN1C(=O)c1nnc(COc2ccc(F)c(F)c2)n1-c1cccnc1 do in these assays?
nsP2pro inh: inactive

Results for COc1cncc(NC(=O)C2=NO[C@@H]3CN(Cc4ccccc4)C[C@H]23)c1 ?
nsP2pro inh: inconclusive

How did C[C@@H]1CN(C(=O)c2cc(S(N)(=O)=O)ccc2F)CC[C@]1(C)O do in these assays?
nsP2pro inh: inactive

What do the screens show for `C=CCNC(=O)N[C@H]1CO[C@H]2[C@@H]1OC[C@@H]2Nc1nccc(-c2cccc(F)c2)n1`?
nsP2pro inh: -4%[39.2 µM]

Results for COc1ccc(-c2ccccc2NC(=O)C2CCCN(CC=C(C)C)C2)cc1 (centres undefined) ?
nsP2pro inh: 1%

How did Cc1ccc(-c2noc([C@@H]3Cc4nc[nH]c4CN3C(=O)NC3CCCCC3)n2)cc1 do in these assays?
nsP2pro inh: inconclusive

What do the screens show for `Cc1ccc(-n2nc(C)c3c(C(=O)O)cc(C)nc32)cc1`?
nsP2pro inh: -15%

How did COc1ccc(-c2cc([C@H]3CN4CC[C@H]3C[C@@H]4CNC(=O)NC3CCCCC3)n(C)n2)cc1 do in these assays?
nsP2pro inh: 12%

How did CC(C)(C)NC(=O)[C@@H](c1cccnc1)N(C(=O)c1ccco1)c1ccc(C(C)(C)C)cc1 do in these assays?
nsP2pro inh: -1%

What do the screens show for `COc1cccc(NC(=O)C2CCN(c3cc(C)nc4c(-c5ccc(Cl)cc5)c(C)nn34)CC2)c1`?
nsP2pro inh: -13%

What do the screens show for `CN(Cc1ccccc1)Cc1nc(C2CCOC2)no1` (centres undefined)?
nsP2pro inh: -9%

Results for CN1CCN(C)c2cnc(-c3cnn(Cc4ccccc4)c3)cc2C1 ?
nsP2pro inh: inconclusive

Results for O=C(c1cccs1)N1CCCN(c2cc(-c3ccc(F)cc3)[nH]n2)CC1 ?
nsP2pro inh: -5%

How did O=C(c1ccc2ncccc2c1)N1CC(n2ccnc2)C1 do in these assays?
nsP2pro inh: inactive

What do the screens show for `Cc1ccc(CN2CCC(C3CCNC3)CC2)nc1` (centres undefined)?
nsP2pro inh: 20%

Results for O=C(c1ccc(C(F)(F)F)cc1)N1CCCC(C(=O)N2CCC(N3CCOC3=O)CC2)C1 (centres undefined) ?
nsP2pro inh: -7%

Results for COCCN1CCC(CN(Cc2ccncc2)C(=O)C2CC23CCCC3)CC1 (centres undefined) ?
nsP2pro inh: inactive

What do the screens show for `Cc1c(NC(=O)c2cc(-c3ccc(Br)cc3)on2)c(=O)n(-c2ccccc2)n1C`?
nsP2pro inh: -10%

How did O=C(Nc1ccc([S+](=O)([O-])Nc2nccs2)cc1)C1CCNCC1 do in these assays?
nsP2pro inh: -5%

What do the screens show for `CC(NC(=O)CCNS(=O)(=O)c1cccc2nsnc12)c1ccccc1` (centres undefined)?
nsP2pro inh: -12%

How did O=C1CO[C@H]2CCN(Cc3ccccn3)CC[C@@H]2N1c1ccccc1 do in these assays?
nsP2pro inh: inactive

How did COc1cccc(C(=O)N2CCC3(CC2)CCN(CCc2ccccc2)c2ccccc2O3)c1 do in these assays?
nsP2pro inh: -17%

What do the screens show for `O=C(/C=C/n1cnc(-c2cc(C(F)(F)F)cc(C(F)(F)F)c2)n1)NNc1cnccn1`?
nsP2pro inh: 34%

Results for Cc1ccccc1CNC(=O)C1CCN(c2nnc(-n3c(C)ccc3C)s2)CC1 ?
nsP2pro inh: -12%

Results for O=C(Nc1ccc(-c2nc3ccccc3[nH]2)cc1)Nc1ccc2occc2c1 ?
nsP2pro inh: inactive

What do the screens show for `COc1ccc2nc(-c3ccc(C#N)cc3)sc2c1`?
nsP2pro inh: inconclusive

How did CCCCN(CCCNC(=O)c1ccc(Sc2ccc(Cl)cc2)c(NC(C)=O)c1)c1ccccc1 do in these assays?
nsP2pro inh: -24%

Results for COc1cc2c(cc1OC)C(COc1ccc3c(C)cc(=O)oc3c1)N(C(=O)CC(C)C)CC2 (centres undefined) ?
nsP2pro inh: -12%

What do the screens show for `CC(C)(C)n1cnc2cccnc21`?
nsP2pro inh: inconclusive

How did c1ccc(CNc2ncc(-c3ccc(N4CCOCC4)cc3)c3c2OCC3)cc1 do in these assays?
nsP2pro inh: -9%[39.2 µM]

What do the screens show for `CC1=C(CCC(C)O[C@@H]2O[C@H](CO)[C@@H](O)[C@H](O)[C@H]2O)C(C)(C)CCC1=O` (some centres undefined)?
nsP2pro inh: 111%[activator]

Results for CCOC(=O)C1CCN(C(=O)C2(NC(=O)Nc3ccccc3Cl)CC2)CC1 ?
nsP2pro inh: -3%

What do the screens show for `Nc1nc(N)c2nc(-c3cccc(O)c3)cnc2n1`?
nsP2pro inh: 21%

What do the screens show for `COCc1nnc2n1CCC(NC(=O)Cc1c[nH]c3ccccc13)CC2` (centres undefined)?
nsP2pro inh: 4%

Results for COc1ccc(NC(=O)CN2CCN(Cc3ccccc3)S2(=O)=O)c(OC)c1 ?
nsP2pro inh: -26%

How did Nc1[nH]nc2nnc(-c3c(-c4ccccc4)nn4ccccc34)cc12 do in these assays?
nsP2pro inh: 12%

Results for Cc1nn(C)c(C)c1S(=O)(=O)N1CCC2(CCC(=O)N(Cc3ccccc3)CC2)CC1 ?
nsP2pro inh: -9%

How did CCOc1ccccc1CN(CCc1ccc2c(c1)OCO2)Cc1cccc(OC)c1OC do in these assays?
nsP2pro inh: -7%

How did NNC(=O)c1ccncc1 do in these assays?
nsP2pro inh: 21%

What do the screens show for `Cc1ccc2cccc(NC(=O)c3cccc4c(Br)cccc34)c2n1`?
nsP2pro inh: -18%

What do the screens show for `Cc1ccnc(NC(=S)N2CCN(C)CC2)c1`?
nsP2pro inh: -9%

How did CC(C)NC(=O)NCC1Cn2cccc2C(=O)N1Cc1ccccc1 (centres undefined) do in these assays?
nsP2pro inh: -12%

Results for CNC(=O)[C@@H](C1CC1)N1CCC[C@H]1C(=O)N1CCC(C)CC1 ?
nsP2pro inh: 1%[39.2 µM]

How did Nc1nc(NCc2ccc(-c3ccnc(C(F)(F)F)c3)cc2)c2ccccc2n1 do in these assays?
nsP2pro inh: -20%

Results for Cc1ccccc1Cn1c(=O)n(CCc2ccccc2)c(=O)c2ccccc21 ?
nsP2pro inh: -33%

Results for Cc1ccc(CN2CCC(CNC(=O)NC(C)C)C2)cc1C (centres undefined) ?
nsP2pro inh: 2%

What do the screens show for `CCCSc1nc2sc3c(c2c(=O)n1Cc1ccccc1)CC(C)(CC)OC3` (centres undefined)?
nsP2pro inh: -25%

What do the screens show for `CN(CC1CCOC1)C(=O)c1ccco1` (centres undefined)?
nsP2pro inh: -13%

Results for CCc1cccc(C)c1Nc1c(-c2ccsc2)nc2ncccn12 ?
nsP2pro inh: -23%

What do the screens show for `O=C(CCc1ccccc1)Nc1cccc([S+](=O)([O-])Nc2ccccc2F)c1`?
nsP2pro inh: -8%

What do the screens show for `COC(=O)c1cc2sc(C)cc2n1Cc1ccc(F)cc1Cl`?
nsP2pro inh: -16%

How did Cn1nnnc1Sc1ncnc2scc(-c3ccc(C(=O)OC(C)(C)C)cc3)c12 do in these assays?
nsP2pro inh: 5%

How did Cc1ccc(-c2ccc3ncc4c(c3n2)n(C2CCN(C(=O)[C@H](C)O)CC2)c(=O)n4C)cn1 do in these assays?
nsP2pro inh: -4%

Results for COc1ccc(N2CC3(COCC2=O)CN(c2ccc(C(F)(F)F)cn2)C3)cc1 ?
nsP2pro inh: -8%[39.2 µM]

What do the screens show for `Cc1ccc(-c2no[n+]([O-])c2C#N)cc1`?
nsP2pro inh: 0%

Results for C=C1/C(=C/C=C2\CCC[C@]3(C)[C@@H]([C@H](C)CCCC(C)(C)O)CC[C@@H]23)C[C@@H](O)[C@@H](OCCCO)[C@@H]1O ?
nsP2pro inh: 2%

Results for CCC1(O)CCC2C3CCC4=CC(=O)CCC4C3CCC21CC (centres undefined) ?
nsP2pro inh: -2%

What do the screens show for `COc1cc2nc(N3CCN(C(=O)C4CCCO4)CC3)nc(N)c2cc1OC` (centres undefined)?
nsP2pro inh: -21%

Results for CN(Cc1ccccc1)C(=O)c1c[nH]c2ccc(S(=O)(=O)Nc3ccccc3F)cc2c1=O ?
nsP2pro inh: -12%

How did Cc1ccc(S(=O)(=O)n2nc(-c3ccccc3)nc2NCc2ccccc2Cl)cc1 do in these assays?
nsP2pro inh: -6%

Results for C[C@@H]1O[C@@H](O[C@H]2[C@H](O[C@H]3CO[C@@H](O[C@H]4CC[C@@]5(C)C(CC[C@]6(C)C5CC[C@]57OC[C@@]8(CC[C@](C)(CO)CC85)[C@H](O)C[C@]76C)C4(C)C)[C@H](O[C@@H]4O[C@H](CO)[C@@H](O)[C@H](O)[C@H]4O)[C@H]3O)O[C@H](CO)[C@@H](O)[C@@H]2O)[C@H](O)[C@H](O)[C@H]1O (some centres undefined) ?
nsP2pro inh: 123%[activator][5.1 µM]

How did O=C(COc1ccc(Cl)cc1)Nc1nnc2n1CCS2 do in these assays?
nsP2pro inh: -7%

How did O=C(O)CC/C=C\C[C@H]1CO[C@@H](c2ccccc2Cl)O[C@H]1c1ccccc1O do in these assays?
nsP2pro inh: -1%

What do the screens show for `CC(C)(C)OC(=O)N1CCN(c2ccc(NCc3ncc(-c4ccc(C#N)cc4)o3)cc2)CC1`?
nsP2pro inh: inactive

What do the screens show for `Cc1ccc(CNC(=O)Cn2cc(S(=O)(=O)Cc3ccccc3F)c3ccccc32)cc1`?
nsP2pro inh: -13%

Results for O=C(c1ccccc1)N1CCN(c2nc(-c3ccc(Br)cc3)cs2)CC1 ?
nsP2pro inh: 3%

What do the screens show for `CC(=O)N1CCC(C(=O)N2CCn3nc(Cc4ccccc4)cc3C2)CC1`?
nsP2pro inh: 4%

Source: PubChem (National Center for Advancing Translational Sciences (NCATS))
